Bioassay records from PubChem.
FGF22 binding = binders of human FGF22 protein, primary screen, FGF22 synaptogenesis inhibitor project, biophysical, thermal shift, single point. calls only at 9.99 µM. hit rate 1.5% among 340,000. recombinant FGF22 thermal shift, SYPRO orange fluorescence; percent of sucrose octasulfate shift, DMSO zero. Fibroblast growth factor 22 (Homo sapiens), Q9HCT0. AID 651658, 2012;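 active means melting point raised past a set limit in the mean and every replicate; inconclusive means no clear call; three in four hits are not shown here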
Target sequence (Q9HCT0 whole entry, looked up): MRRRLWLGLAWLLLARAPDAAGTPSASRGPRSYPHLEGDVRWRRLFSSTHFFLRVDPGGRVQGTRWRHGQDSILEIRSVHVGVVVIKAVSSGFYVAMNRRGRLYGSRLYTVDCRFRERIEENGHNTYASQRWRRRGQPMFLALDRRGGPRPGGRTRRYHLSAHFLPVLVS
MLL AF4-AF9 inh = inhibitors of AF4 peptide binding to AF9, primary screen, biochemical, AlphaScreen, biotin-AF4 peptide, FLAG-AF9, single point; inhibition, % at 10 µM; hit rate 0.47% among 350,000; AID 651704, 2012;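 active means every replicate reaching a set inhibition limit, whatever the replicate mean, cut at about 25% in these data; inconclusive means mean inhibition reaches that limit but some replicates miss it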;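 further: 0% = plate neutral control median and 100% = total signal loss; the record names both 10 and 1 µM as test concentration; the first replicate is given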
Target sequence (P42568 whole entry, looked up): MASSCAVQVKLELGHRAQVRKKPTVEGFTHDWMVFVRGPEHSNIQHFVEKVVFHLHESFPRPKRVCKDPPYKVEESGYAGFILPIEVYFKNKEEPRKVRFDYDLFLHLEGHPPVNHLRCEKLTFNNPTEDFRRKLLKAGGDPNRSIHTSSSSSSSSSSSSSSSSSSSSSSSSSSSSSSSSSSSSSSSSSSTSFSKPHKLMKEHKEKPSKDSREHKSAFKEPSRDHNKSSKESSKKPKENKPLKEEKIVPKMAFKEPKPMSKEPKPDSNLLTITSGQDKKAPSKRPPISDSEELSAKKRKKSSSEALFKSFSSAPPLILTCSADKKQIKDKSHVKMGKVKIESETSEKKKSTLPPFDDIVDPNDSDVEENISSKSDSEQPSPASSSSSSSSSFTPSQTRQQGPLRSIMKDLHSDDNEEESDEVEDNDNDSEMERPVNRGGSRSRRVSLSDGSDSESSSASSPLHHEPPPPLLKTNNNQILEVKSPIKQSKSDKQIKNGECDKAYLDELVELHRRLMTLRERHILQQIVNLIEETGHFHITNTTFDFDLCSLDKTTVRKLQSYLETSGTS
* = called active by the depositor; i = inactive; u = inconclusive; + = active, no number. This is a subset; rates above refer to the full screens.

SMILES,MLL AF4-AF9 inh,FGF22 binding
C[C@@H]1CN([C@H](C)CO)C(=O)c2cc(NC(=O)Cc3cn(C)c4ccccc34)ccc2O[C@@H]1CN(C)S(=O)(=O)c1cccs1,-5.1,i
N#Cc1cc(F)cc(OCCCN2CCC(C(O)(c3ccccc3)c3ccccc3)CC2)c1,0.3,i
COCC(=O)N1CC2(CCN(Cc3ccccc3Cl)CC2)c2c([nH]c3cc(OC)ccc23)[C@H]1CO,11,i
O=C(C[C@@H]1CC[C@H]2[C@@H](COC[C@H](O)CN2Cc2ccc3c(c2)OCO3)O1)N1CCCCC1,-18,i
O=C(C1CC1)N1C[C@H]2[C@@H](c3ccccc31)[C@H](CO)N2C(=O)c1ccccc1F,-0.2,i
CC(C)[C@@H]1COCn2nncc2CC[C@H](Cc2ccccc2)C(=O)N1,12,i
O=C(NC1CCCCC1)[C@H]1[C@H](CO)[C@H]2Cn3c(cccc3=O)[C@H]2N1C(=O)CC1CC1,2.6,i
C[C@@H]1CN([C@H](C)CO)C(=O)c2cc(C#Cc3cccnc3)cnc2O[C@H]1CN(C)Cc1ccc(F)cc1,0.2,i
CC(C)NC(=O)NC[C@@H]1[C@H](c2ccccc2)[C@H](CO)N1C(=O)c1ccccc1,-0.7,i
CCC(=O)Nc1ccc2c(c1)OC[C@H](C)N(C(=O)CN(C)C)C[C@@H](C)[C@@H](OC)CN(C)C2=O,-1.9,i
O=C(C[C@@H]1C[C@@H]2c3cc(NC(=O)c4cccnc4)ccc3O[C@@H]2[C@@H](CO)O1)NCc1ccncc1,-2.5,i
O=C(NCC[C@@H]1CC[C@@H](NC(=O)Nc2cc(F)ccc2F)[C@H](CO)O1)Nc1ccc(F)cc1,22,i
CC(=O)N1C[C@@H]2[C@H](c3ccccc31)[C@@H](CO)N2C(=O)c1ccc(F)cc1,-1.3,i
N#C[C@@H]1[C@H](c2ccc(C3=CCCCC3)cc2)[C@@H](CO)N1C(=O)NC1CCCCC1,1.1,i
Cc1noc(C)c1NC(=O)Nc1ccc2c(c1)C(=O)N([C@@H](C)CO)C[C@@H](C)[C@@H](CN(C)CC1CCCCC1)OCCCC[C@@H](C)O2,-1.4,i
C[C@@H]1CN([C@H](C)CO)C(=O)c2cccc(NC(=O)NC3CCCCC3)c2O[C@H]1CN(C)Cc1ccc(-c2ccccc2)cc1,1.8,i
CC(C)NC(=O)Nc1ccc2c(c1)CC(=O)N([C@@H](C)CO)C[C@H](C)[C@H](CN(C)Cc1ccc(-c3ccccc3)cc1)O2,2.9,i
C[C@@H]1CN([C@H](C)CO)C(=O)c2cc(NC(=O)Nc3ccc(C(F)(F)F)cc3)ccc2O[C@@H]1CN(C)Cc1ccc(Oc2ccccc2)cc1,-1.2,i
O=C(N[C@@H]1CC[C@@H](CCNS(=O)(=O)Cc2ccccc2)O[C@H]1CO)c1cnccn1,-17,i
CC(C)NC(=O)Nc1ccc2c(c1)C(=O)N([C@H](C)CO)C[C@H](C)[C@H](CN(C)C(=O)c1ccncc1)OCCCC[C@H](C)O2,7.7,i
COc1ccc(-c2ccc3c(c2)[C@@H]2[C@@H](CCN2S(=O)(=O)c2ccccc2C)[C@@H](CO)N3)cc1,-1.3,i
CN(C)C(=O)c1cccc(-c2ccc([C@H]3[C@@H](CO)N(C(=O)C4CCCCC4)[C@H]3C#N)cc2)c1,-1.2,i
CO[C@@H]1CN(C)C(=O)c2cc(NC(=O)C3CC3)ccc2OC[C@@H](C)N(CC2CCOCC2)C[C@@H]1C,-11,i
COCC#Cc1cnc2c(c1)C(=O)N([C@@H](C)CO)C[C@H](C)[C@H](CN(C)S(C)(=O)=O)O2,-4.8,i
C[C@@H]1CN([C@H](C)CO)C(=O)Cc2cc(NS(=O)(=O)c3cccs3)ccc2O[C@H]1CN(C)CC1CCCCC1,3.5,i
COCCNC(=O)C[C@@H]1CC[C@H]2[C@@H](COc3ccc(NC(=O)Cc4ccccc4)cc3C(=O)N2C)O1,-1.1,i
COC(=O)C[C@H]1CC[C@@H](NS(=O)(=O)c2ccccc2F)[C@@H](CO)O1,0.2,i
C[C@H](CO)N1C[C@H](C)[C@H](CN(C)Cc2cccnc2)Oc2cc(C#CC3CCCCC3)ccc2S1(=O)=O,4.1,i
COc1ccccc1S(=O)(=O)Nc1ccc2c(c1)OC[C@@H](C)NC[C@H](C)[C@H](OC)CN(C)C2=O,-2.2,i
CO[C@H]1CN(C)C(=O)c2cc(NS(=O)(=O)CC(F)(F)F)ccc2OC[C@@H](C)NC[C@@H]1C,-5.4,i
O=C(C[C@H]1CC[C@H]2[C@@H](COC[C@@H](O)CN2S(=O)(=O)c2cccc(F)c2)O1)NC1CCC1,0.5,i
CO[C@@H]1CN(C)C(=O)c2cc(NC(=O)c3ccccc3F)ccc2OC[C@H](C)N(CC2CCOCC2)C[C@@H]1C,1.6,i
C[C@H]1CN([C@@H](C)CO)C(=O)c2cccc(NC(=O)Nc3cccc4ccccc34)c2O[C@@H]1CN(C)S(C)(=O)=O,6.2,i
CC(C)NC(=O)N(C)C[C@@H]1OCCCC[C@H](C)Oc2ccc(N(C)C)cc2C(=O)N([C@H](C)CO)C[C@@H]1C,1.6,i
COc1ccc(S(=O)(=O)Nc2ccc3c(c2)C(=O)N([C@H](C)CO)C[C@H](C)[C@H](CN(C)S(=O)(=O)c2cccs2)OCCCC[C@H](C)O3)cc1,3.6,i
COc1ccccc1C(=O)Nc1ccc2c(c1)C(=O)N(C)C[C@@H](OC)[C@@H](C)CN(C(C)=O)[C@@H](C)CO2,2.6,i
CN1CCN(C(=O)C[C@@H]2CC[C@H]3[C@@H](COC[C@@H](O)CN3Cc3ccc(Oc4ccccc4)cc3)O2)CC1,0.8,i
CCCNC(=O)[C@@H]1[C@@H](CO)[C@@H]2Cn3c(ccc(-c4ccc(F)cc4)c3=O)[C@@H]2N1CC,-9.5,i
O=C(N[C@@H]1CC[C@H](CCn2cc(C3(O)CCCC3)nn2)O[C@H]1CO)C1CC1,-2.4,i
C[C@@H]1CN([C@@H](C)CO)C(=O)c2cc(NS(=O)(=O)c3cn(C)cn3)ccc2O[C@@H](C)CCCCO[C@H]1CN(C)C(=O)Nc1ccc2c(c1)OCO2,-5.4,i
C[C@@H]1CCCCO[C@@H](CN(C)C(=O)Nc2ccc3c(c2)OCO3)[C@@H](C)CN([C@@H](C)CO)C(=O)c2cc(NC(=O)Nc3ccc(C(F)(F)F)cc3)ccc2O1,0.0,i
CCC(=O)Nc1ccc2c(c1)C(=O)N(C)C[C@@H](OC)[C@H](C)CN(C(=O)c1ccccn1)[C@H](C)CO2,u,i
C[C@@H]1CN([C@H](C)CO)C(=O)Cc2cc(NS(=O)(=O)c3ccccc3)ccc2O[C@H]1CN(C)Cc1ccc2c(c1)OCO2,3.6,i
CC(C)NC(=O)Nc1ccc2c(c1)C(=O)N([C@H](C)CO)C[C@@H](C)[C@@H](CN(C)S(=O)(=O)c1cccs1)OCCCC[C@H](C)O2,-0.9,i
CO[C@H]1CN(C)C(=O)c2cc(NS(C)(=O)=O)ccc2OC[C@H](C)N(CC2CC2)C[C@@H]1C,-1.5,i
COc1ccc(CN2CC3(CCN(C(=O)C4CC4)CC3)c3c(n(C)c4cc(OC)ccc34)[C@@H]2CO)cc1,7.6,i
Cc1noc(C)c1S(=O)(=O)Nc1cccc2c1O[C@H](CN(C)C(=O)NC(C)C)[C@H](C)CN([C@@H](C)CO)C2=O,-4.1,i
COc1ccc(NC(=O)N[C@@H]2CC[C@H](CCNC(=O)CN3CCOCC3)O[C@@H]2CO)cc1,-3.2,i
C[C@@H]1CN([C@H](C)CO)C(=O)c2cc(NC(=O)C3CCCCC3)ccc2O[C@@H]1CN(C)S(=O)(=O)c1ccc(F)cc1,-2.2,i
C[C@H]1CN([C@@H](C)CO)C(=O)c2cccc(NC(=O)Nc3ccccc3)c2O[C@@H]1CN(C)Cc1ccc(-c2ccccc2)cc1,1.9,i

The listing continues:
SMILES,MLL AF4-AF9 inh,FGF22 binding
O=C(O)C[C@H]1CC[C@@H](NC(=O)Nc2ccccc2)[C@H](CO)O1,-3.6,i
C[C@@H]1CN([C@H](C)CO)C(=O)c2cc(-c3cccc(C#N)c3)cnc2O[C@H]1CN(C)C(=O)C1CCOCC1,-3.5,i
CO[C@H]1CN(C)C(=O)c2ccc(NC(=O)C3CC3)cc2OC[C@H](C)N(C(=O)c2cccnc2)C[C@@H]1C,0.5,i
Cc1cccc(S(=O)(=O)N2C[C@H](O)COC[C@H]3O[C@H](CC(=O)Nc4ccccc4)CC[C@@H]32)c1,-0.6,+
COCC#Cc1cnc2c(c1)C(=O)N([C@H](C)CO)C[C@H](C)[C@H](CN(C)C(=O)Nc1ccccc1F)O2,-3.1,i
C[C@@H]1CN([C@H](C)CO)C(=O)c2cc(NS(=O)(=O)c3ccccc3)ccc2O[C@@H](C)CCCCO[C@@H]1CN(C)S(=O)(=O)c1ccc(Cl)cc1,-10,i
C[C@H](NC(=O)C[C@@H]1CC[C@H](NS(=O)(=O)c2cccc(F)c2)[C@H](CO)O1)c1ccccc1,-1.6,i
Cc1ccc(S(=O)(=O)N(C)C[C@@H]2Oc3ccc(NC(=O)NC(C)C)cc3CC(=O)N([C@@H](C)CO)C[C@H]2C)cc1,2.1,i
CCCNC(=O)N1[C@@H](C#N)[C@H](c2ccc(-c3cccc(OC)c3)cc2)[C@@H]1CO,0.1,i
CC(C)NC(=O)N(C)C[C@H]1Oc2cc(-c3ccccc3F)ccc2S(=O)(=O)N([C@H](C)CO)C[C@H]1C,0.1,i
O=C(c1cccc(F)c1)N1C[C@H]2[C@@H](c3ccccc31)[C@H](CO)N2C(=O)C1CCOCC1,-0.4,i
COc1ccc(NC(=O)N(C)C[C@@H]2OCCCC[C@@H](C)Oc3ccc(NC(=O)Nc4ccc5c(c4)OCO5)cc3C(=O)N([C@@H](C)CO)C[C@H]2C)cc1,0.7,i
CN(C)C(=O)[C@H]1[C@H](CO)[C@H]2Cn3c(ccc(C4=CCCC4)c3=O)[C@@H]1N2C(=O)Nc1ccccc1,-2.0,i
COc1ccc(CN(C)C[C@@H]2Oc3c(NC(=O)Nc4ccc(C(F)(F)F)cc4)cccc3C(=O)N([C@@H](C)CO)C[C@H]2C)cc1,1.7,i
C[C@H]1CN([C@@H](C)CO)C(=O)c2cccc(NC(=O)Nc3ccc4c(c3)OCO4)c2O[C@@H]1CN(C)Cc1ccc(Cl)c(Cl)c1,2.5,i
O=C(C[C@@H]1C[C@H]2c3cc(NC(=O)NC4CCCC4)ccc3O[C@H]2[C@H](CO)O1)NCC(F)(F)F,-0.9,i
Cc1noc(C)c1NC(=O)Nc1ccc2c(c1)C(=O)N(C)[C@@H]1CC[C@@H](CC(=O)N(C)C)O[C@@H]1CO2,0.2,i
COCC#Cc1ccc([C@@H]2[C@@H](CO)N3CCCCN(Cc4ccccc4F)C[C@H]23)cc1,8.3,i
COc1cccc(S(=O)(=O)N[C@H]2C=C[C@H](CC(=O)NCc3ccc(Cl)cc3)O[C@@H]2CO)c1,-0.4,i
O=C(Nc1cc(F)ccc1F)N1CC(=O)N2[C@H](CO)[C@@H](c3ccc(C#CC4CCCC4)cc3)[C@H]2C1,4.1,i
C[C@@H]1CN([C@@H](C)CO)C(=O)c2cc(C#Cc3cccnc3)cnc2O[C@H]1CN(C)C,-5.7,i
C[C@@H](O)C#Cc1cnc2c(c1)C(=O)N([C@@H](C)CO)C[C@H](C)[C@H](CN(C)C(=O)c1ccccc1)O2,-1.8,i
Cc1ccc(-c2cnc3c(c2)C(=O)N([C@H](C)CO)C[C@@H](C)[C@H](CN(C)C(=O)c2ccncc2)O3)cc1,-5.8,i
CS(=O)(=O)N1C[C@H](O)COC[C@H]2O[C@@H](CC(=O)NCc3ccc(-c4ccccc4)cc3)CC[C@@H]21,20,i
C[C@H]1CN([C@@H](C)CO)S(=O)(=O)c2ccc(-c3cccc(C#N)c3)cc2O[C@@H]1CN(C)C(=O)c1cccnc1,2.6,i
COc1ccc(NC(=O)Nc2ccc3c(c2)[C@@H]2C[C@H](CC(=O)N4CCN(C)CC4)O[C@@H](CO)[C@@H]2O3)cc1,8.2,i
Cc1noc(C)c1S(=O)(=O)Nc1cccc2c1O[C@H](CN(C)Cc1ccc(C(=O)O)cc1)[C@@H](C)CN([C@H](C)CO)C2=O,-1.5,i

Among those listed so far, these contain a COOH group:
SMILES,MLL AF4-AF9 inh,FGF22 binding
O=C(O)C[C@H]1CC[C@@H](NC(=O)Nc2ccccc2)[C@H](CO)O1,-3.6,i
Cc1noc(C)c1S(=O)(=O)Nc1cccc2c1O[C@H](CN(C)Cc1ccc(C(=O)O)cc1)[C@@H](C)CN([C@H](C)CO)C2=O,-1.5,i

Some of these compounds in order of length of the SMILES, highest first.
SMILES,MLL AF4-AF9 inh,FGF22 binding
COc1ccc(NC(=O)N(C)C[C@@H]2OCCCC[C@@H](C)Oc3ccc(NC(=O)Nc4ccc5c(c4)OCO5)cc3C(=O)N([C@@H](C)CO)C[C@H]2C)cc1,0.7,i
COc1ccc(NC(=O)Nc2ccc3c(c2)[C@@H]2C[C@H](CC(=O)N4CCN(C)CC4)O[C@@H](CO)[C@@H]2O3)cc1,8.2,i
CCCNC(=O)N1[C@@H](C#N)[C@H](c2ccc(-c3cccc(OC)c3)cc2)[C@@H]1CO,0.1,i
